BmaI1 enzyme: BmaI1 acyl-homoserine lactone synthase inhibition – biochemical, fluorescence intensity, with counterscreen (AID 720554); BmaI1 enzyme assay, fluorescence intensity; hits give high values; test concentration not given here; a few actives read low; strong numbers were not always called active; inhibition, %; 12,000 compounds, 0.4% hits;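 active = both replicates within 2 robust z-scores of the inhibited control and a quiet counterscreen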;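 note: 0% = uninhibited enzyme and 100% = inhibited control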
BmaI1 enzyme counterscreen: recorded beside BmaI1 enzyme, whose call it bears; inhibition, %; measured here: counterscreen; design of the counterscreen not given here;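 first of two replicates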
Active calls of the source: *; & = joins results of further samples. These rows are one share of the data; the hit share may differ from the screen's.

SMILES	BmaI1 enzyme	BmaI1 enzyme counterscreen
Cc1nc2c(n1C1CCCCC1)C(=O)c1ccccc1C2=O	12	6
COc1cc2c(cc1OC)CN(C(=O)CCc1ccccc1)CC2	12	9
O=C(Cn1cnc2ccccc2c1=O)OCC(=O)c1c[nH]c2ccccc12	13	0
O=C(COC(=O)c1ccc(Br)o1)NC12CC3CC(CC(C3)C1)C2	-8	-12
CC(C)CN(CC(C)C)C(=O)COc1ccccc1C(N)=O	4	2
CCOc1ccc(OCCOn2nnc3ccccc32)cc1	12	16
O=C(Cc1cccs1)NCC(c1ccco1)N1CCCCC1 (configuration not stated)	4	0
NCCCSc1nc(C2CC2)n(-c2ccccc2)n1	12	2
COc1cccc(NC(=O)C2CC(=O)N(Cc3ccco3)C2)c1 (configuration not stated)	7	4
O=C(CSc1nc2ccccc2s1)c1ccc2c(c1)OCO2	5	-3
CN(C(=O)COC(=O)c1ccc(Cl)cc1O)C1CCS(=O)(=O)C1 (configuration not stated)	14	-2
COc1cccc(COC(=O)c2n[nH]c3ccccc23)c1	-2	-4
CC1CCc2c(sc3nc(CN4CCOCC4)nc(Sc4nccn4C)c23)C1 (configuration not stated)	8	2
CC1CCCCN1C(=O)c1ccco1 (configuration not stated)	6	2
O=C1CC(c2nc3ccccc3[nH]2)CN1c1cccc(C(F)(F)F)c1 (configuration not stated)	4	1
CCN=c1scc(-c2ccc3c(c2)NC(=O)CO3)n1/N=C/c1cccs1	22	22
Cc1onc(-c2ccccc2)c1C(=O)OCc1ccc(Cl)cc1	-15	0
CCN(c1ccccc1)S(=O)(=O)c1ccc(-n2cnc3cc(C)c(C)cc32)nc1	8	7
CC(C)(C)NC(=O)COc1ccc2oc3c(c2c1)CCCC3	11	4
CNC(=O)NC(=O)CSc1nnc(-c2ccccc2)o1	16	5
Cc1c(C(=O)N2CCN(S(=O)(=O)c3ccccc3)CC2)oc2ccc(Br)cc12	12	4
CCN(C(=O)CN1C(=O)COc2ccccc21)c1nc2c(C)cccc2s1	6	2
FC(F)(F)c1cnc(SCc2nc3ccccc3o2)c(Cl)c1	10	5
CCOc1ccccc1NC(=O)c1ccc(OCC(=O)N2CCOCC2)c(OC)c1	13	13
CCN(Cc1ccccc1)C(=O)c1ccc(S(=O)(=O)N(C)C)cc1	-5	-9
Next results.
SMILES	BmaI1 enzyme	BmaI1 enzyme counterscreen
Cc1nn(CC(=O)c2ccc3c(c2)OCCO3)c(=O)c(C#N)c1C	6	-4
Cn1cccc1C(=O)Nc1nccs1	12	8
COc1ccc(C(=O)OCC(=O)NC23CC4CC(CC(C4)C2)C3)c(O)c1	4	8
O=C(NC1=NCCS1)C1CCN(c2ncc(C(F)(F)F)cc2Cl)CC1	12	14
CC1Sc2ccc(C(=O)Nc3ccc(S(=O)(=O)NCc4ccco4)cc3)cc2NC1=O (configuration not stated)	0	6
CN(CC(=O)NC1(C#N)CCCC1)c1ccccc1	-50	-12
Nc1cccc2c1C(=O)N(C(=O)c1ccc3c(c1)S(=O)(=O)N=C1CCCCCN13)C2=O	2	0
COC(=O)c1ccc2c(=O)n(CC3CCCO3)c(SCc3coc(-c4cccs4)n3)nc2c1 (configuration not stated)	16	6
COCCn1c(C)cc(C(=O)c2sc(-c3c(N)n(C)c(=O)n(C)c3=O)nc2-c2ccccc2)c1C	1	2
COc1cccc(C(=O)NCc2ccc3c4c(cccc24)C(=O)N3)c1	15	8
CC(Sc1nnc(Cc2cccc3ccccc23)n1C1CCCCC1)C(=O)NCc1ccco1 (configuration not stated)	16	-3
COc1cc(C)c(/C=C/C(C)=C/C=C/C(C)=C/C(=O)O)c(C)c1C	4	6
CNS(=O)(=O)c1cccc(C(=O)OCc2nnc(-c3cc(OC)c(OC)c(OC)c3)o2)c1	6	2
COC(=O)/C=C1\NC(=O)C(C)S1 (configuration not stated)	1	0
Oc1c(C(c2cccnc2)N2CCCCC2)ccc2cccnc12 (configuration not stated)	-20	-54
COC(=O)c1ccc(COC(=O)c2ccc3ncsc3c2)o1	28	12
CSc1ncc(C(=O)N2CCOCC2)n1-c1ccccc1	-10	-4
Cc1ccc(NC(=O)COC(=O)Cc2c(C)noc2C)cc1C	36	7
O=C(NCCc1ccccc1)C1=CC=CN2CCS(=O)(=O)N=C12	18	11
CCN(C(=O)c1ccc(OC(C)C)cc1)C1CCS(=O)(=O)C1 (configuration not stated)	8	0
CCOC(=O)c1c(NC(=O)COC(=O)C2CC(=O)N(Cc3ccco3)C2)sc(C(=O)NC)c1C (configuration not stated)	35	9
O=C(Cc1cccc2ccccc12)N(Cc1nnc(-c2ccccc2Cl)o1)C1CC1	10	8
CCOC(=O)N1CCC(=NNC(=O)CSc2nnc(-c3ccccc3)n2-c2ccccc2)CC1	-8	-7
N#Cc1ccc(CN2C(=O)NC3(CCCc4ccccc43)C2=O)cc1 (configuration not stated)	10	14
CCc1ccc(N/N=C(\C#N)C(=O)N2CCN(C)CC2)cc1	34	0
Next part
SMILES	BmaI1 enzyme	BmaI1 enzyme counterscreen
O=C(Cc1coc2cc(O)ccc12)OCC(=O)c1ccc2[nH]c(=O)[nH]c2c1	52	32
O=C(CSc1ncccc1C(=O)NCC1COc2ccccc2O1)Nc1ccc2c(c1)OCO2 (configuration not stated)	20	14
CNC(=O)Oc1ccc2c(c1)[C@]1(C)CCN(C)C1N2C (some centres not stated)	2	-20
CN(C1CCCCC1)S(=O)(=O)c1ccccc1NC=C(C#N)C#N	14	14
CC(OC(=O)C12CC3CC(CC(O)(C3)C1)C2)C(=O)N1CCCc2ccccc21 (configuration not stated)	16	10
c1ccc(-c2nc3ccccc3[nH]2)cc1	6	22
O=C(Cn1cnc2ccccc21)N/N=C/c1ccccc1	4	8
COC(=O)c1cc(-c2ccc(OC)c(OC)c2)nc2c1cnn2C(C)C	5	0
COc1ccc(NC(=O)COC(=O)c2nn(C)c(=O)c3ccccc23)cc1	35	4
CCCCN(CC)c1cn[nH]c(=O)c1Cl	-1	1
COCC(C)n1c(COc2ccccc2F)nnc1SCC(=O)c1ccc2c(c1)NC(=O)CO2 (configuration not stated)	34	14
O=C(/C=C/C(=O)N1CCCc2ccccc21)N1CCN(c2ccc(F)cc2)CC1	18	10
CCOc1cc2c(cc1CNC(CN1CCOCC1)c1ccc(C)cc1)OC(C)C2 (configuration not stated)	4	-6
Cc1ccc(/C=C/C(=O)OC(C)C(=O)Nc2ncc(Cl)cc2Cl)o1 (configuration not stated)	16	10
O=C(CSc1nnc2ccccn12)Nc1ccc(N2CCCCC2)cc1	47	60
Cc1c(C(=O)OC2CCOC2=O)oc2c1ccc1ccccc12 (configuration not stated)	7	4
CC(=O)N[C@@H](Cc1c[nH]c2ccccc12)C(=O)N1CCC(C)CC1	7	10
CC(C)(CNC(=O)c1cc2ccccc2o1)N1CCOCC1	8	6
CSc1ccc(CN(C)C(=O)Cn2[nH]c(=O)c3ccccc3c2=O)cc1	15	28
Nc1ccn([C@@H]2CS[C@H](CO)O2)c(=O)n1	-2&3	2&10
Cc1nc(CNCc2ccc(CN(C)C)cc2)cs1	14	16
N#CC(C(=O)CSc1nc2ccccc2[nH]1)c1ccccc1 (configuration not stated)	50	38
O=C(COC(=O)/C=C/c1ccc(Br)o1)Nc1cccc2nsnc12	2	2
CCN(Cc1ccc2c(c1)OCCO2)C(=S)NCc1ccco1	36	12
CCOC(=O)C1=C(C)N(C2CCCC2)C(=O)NC1c1ccc(Cl)cc1 (configuration not stated)	19	16
Remaining list, next part:
SMILES	BmaI1 enzyme	BmaI1 enzyme counterscreen
COc1ccc(N2C(=O)C3SC(N)=C(C#N)C4(CCCCC4)C3C2=O)cc1 (configuration not stated)	6	3
CSc1ccccc1NC(=O)CN(C)Cc1cc(=O)n2ccsc2n1	-2	-8
Cc1nn(Cc2ccccc2Cl)c(C)c1C(=O)N(CC1CCCO1)C1CCS(=O)(=O)C1 (configuration not stated)	24	4
Cc1ccsc1C(=O)OCC(=O)N1C(C)CCCC1C (configuration not stated)	6	2
Cc1ccc(S(=O)(=O)Nc2ccc3nc(C)sc3c2)cc1	23	4
CSc1ccccc1NS(=O)(=O)c1ccccc1C(F)(F)F	26	22
N#Cc1cccc(NC(=O)COc2ccccc2C(N)=O)c1	13	21
Cc1nnc(Sc2cnn(-c3ccccc3)c(=O)c2Cl)n1C	12	8
CNC(=O)NC(=O)C(Sc1cccc[n+]1[O-])c1ccccc1 (configuration not stated)	6	-9
O=C(c1cc2ccccc2o1)N1CCCC1c1nc2ccccc2s1 (configuration not stated)	-2	0
CCN(CC)CCNC(=O)c1ccc(N)cc1	-6	19
Cc1cc(NC(=O)COC(=O)/C=C/c2ccccc2Cl)no1	-2	-1
Cc1nn(CC(=O)N2CCCCC2)c(C)c1S(=O)(=O)NC(C)(C)C	18	9
COc1ccc(/C=C/C(=O)Nc2ccc3c(c2)OCO3)cc1S(=O)(=O)N1CCCCC1	6	2
CCOc1cc(C2NS(=O)(=O)N=C3CCCN32)ccc1OCCOc1cccc(C)c1 (configuration not stated)	-6	-2
Cc1ccc(S(=O)(=O)c2ccc(N/N=C/c3c(O)n(C)c(=O)n(C)c3=O)cc2)cc1	58	20
CC1CCN(CC(O)COc2ccccc2)CC1 (configuration not stated)	12	6
CCS(=O)(=O)N1CCC(C(=O)Nc2nnc(-c3ccccc3)o2)CC1	6	16
COC(=O)c1ccccc1NC(=O)Cc1ccsc1	12	0
O=C1CCCN1c1nc(-c2ccccc2)cs1	14	11
COc1ccc(C(=O)Nc2nccs2)cc1S(=O)(=O)N(C)Cc1ccccc1	12	5
CN(C)C(=S)SCC(=O)Nc1cccnc1Cl	27	2
Clc1cccc(Cl)c1NC1=NCCN1	-6	-8
O=C(O)CCCc1ccc(N(CCCl)CCCl)cc1	-8	2
Cc1ccc(OCCNC(=O)Cc2ccsc2)cc1	-4	-6

A draw from above in order of SMILES length, high to low.
SMILES	BmaI1 enzyme	BmaI1 enzyme counterscreen
Cc1ccc(S(=O)(=O)c2ccc(N/N=C/c3c(O)n(C)c(=O)n(C)c3=O)cc2)cc1	58	20
COc1ccc(/C=C/C(=O)Nc2ccc3c(c2)OCO3)cc1S(=O)(=O)N1CCCCC1	6	2
CCOc1cc(C2NS(=O)(=O)N=C3CCCN32)ccc1OCCOc1cccc(C)c1 (configuration not stated)	-6	-2
COc1ccc(N2C(=O)C3SC(N)=C(C#N)C4(CCCCC4)C3C2=O)cc1 (configuration not stated)	6	3
COc1ccc(C(=O)Nc2nccs2)cc1S(=O)(=O)N(C)Cc1ccccc1	12	5
CCS(=O)(=O)N1CCC(C(=O)Nc2nnc(-c3ccccc3)o2)CC1	6	16
CNC(=O)NC(=O)C(Sc1cccc[n+]1[O-])c1ccccc1 (configuration not stated)	6	-9
CSc1ccccc1NC(=O)CN(C)Cc1cc(=O)n2ccsc2n1	-2	-8
O=C(c1cc2ccccc2o1)N1CCCC1c1nc2ccccc2s1 (configuration not stated)	-2	0
Cc1nnc(Sc2cnn(-c3ccccc3)c(=O)c2Cl)n1C	12	8
CSc1ccccc1NS(=O)(=O)c1ccccc1C(F)(F)F	26	22
N#Cc1cccc(NC(=O)COc2ccccc2C(N)=O)c1	13	21
Cc1ccsc1C(=O)OCC(=O)N1C(C)CCCC1C (configuration not stated)	6	2
O=C(O)CCCc1ccc(N(CCCl)CCCl)cc1	-8	2
COC(=O)c1ccccc1NC(=O)Cc1ccsc1	12	0
Cc1ccc(OCCNC(=O)Cc2ccsc2)cc1	-4	-6
O=C1CCCN1c1nc(-c2ccccc2)cs1	14	11
CC1CCN(CC(O)COc2ccccc2)CC1 (configuration not stated)	12	6
Clc1cccc(Cl)c1NC1=NCCN1	-6	-8

Further structures.
SMILES	BmaI1 enzyme	BmaI1 enzyme counterscreen
COc1ccc(-c2noc(COC(=O)CSc3nc4ccccc4o3)n2)c(OC)c1	-4	-7
O=C(CSc1ccc2c(c1)OCCO2)NC(=O)NCc1ccco1	16	8
O=C(CCCc1nc2ccccc2s1)OCc1nnc(-c2cccs2)o1	8	6
Cc1ccccc1NC(=O)CC1SC(N2CCCCC2)=NC1=O (configuration not stated)	17	12
CN(Cc1cccc(Cl)c1Cl)CC(O)COCc1ccccc1 (configuration not stated)	0	0
COC(=O)/C=C/c1ccc(OC(=O)c2ccncc2)cc1	14	17
Cc1noc(C)c1COc1ccc(C(=O)Nc2ccc(F)c(Cl)c2)cc1	-4	-4
CCN(CC)CCCNc1cc(C)c2ccc(OC)cc2n1	8	6
CC(C)Cn1cnc2c1c(=O)n(CC(=O)NCC(F)(F)F)c(=O)n2Cc1ccccc1	10	4
COCCn1c(SCC(N)=O)nc2sc3c(c2c1=O)CCCC3	15	6
O=C(OCN1C(=O)c2ccccc2C1=O)c1cccc(OC(F)F)c1	22	20
Cc1cccc(-c2nnc(SCC3CNC(=O)O3)n2-c2ccc(Cl)cc2)c1 (configuration not stated)	6	1
O=C(OCC(=O)N1CCCC1)c1cc(-c2ccco2)nc2ccccc12	35	4
N#Cc1cccc(C(=O)OCC(=O)NC2CC2)c1	-6	-13
CCCn1c(SCC(=O)NC(C)(C#N)C(C)C)n[nH]c1=O (configuration not stated)	17	4
COc1cccc(COC(=O)c2nc3nc(C)cc(C)n3n2)c1	6	10
Cc1ccc(NC(=O)C2CC2C)c(Cl)c1 (configuration not stated)	12	8
CC(C)N1CCC(NS(=O)(=O)c2c(F)cc(F)cc2Br)CC1	16	4
COc1ccc2c(c1)nc(NCCCO)n2Cc1ccccc1	26	8
O=C(CSc1n[nH]c(=O)n1Cc1ccccc1)NC(=O)Cc1ccccc1	8	-2

An excerpt from above in order of SMILES length, high to low.
SMILES	BmaI1 enzyme	BmaI1 enzyme counterscreen
COCCn1c(C)cc(C(=O)c2sc(-c3c(N)n(C)c(=O)n(C)c3=O)nc2-c2ccccc2)c1C	1	2
CCN(C(=O)CN1C(=O)COc2ccccc21)c1nc2c(C)cccc2s1	6	2
CNC(=O)Oc1ccc2c(c1)[C@]1(C)CCN(C)C1N2C (some centres not stated)	2	-20

Bioassay records deposited in PubChem BioAssay by ICCB-Longwood Screening Facility, Harvard Medical School.
